High-throughput results: PubChem, National Center for Advancing Translational Sciences (NCATS)
SARS PLpro yeast: blocks SARS-CoV papain-like protease in a yeast assay | S. cerevisiae expressing SARS-CoV PLpro, growth rescue; control for the full effect not named in the record | Potency, µM (top dose mostly 32.9 µM), for inactives: top-dose activity, positive = growth rescue | 0.19% of 330,000 active | AID 485353; further: 0% is about no effect; nearly all actives have a fitted effect of over 55% in size; growth read by luminescence after 48 h
NS1 inh: influenza NS1 inhibition; 0.4% of 270,000 active; AID 2326; Potency, µM (series often up to 46.1 µM), without a hit: top-dose activity, positive = more growth; S. cerevisiae slowed by influenza A NS1, growth recovery by OD600; further: actives are rising curves; nearly all actives have a fitted effect of over 50% in size
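Read-out: OD600 growth recovery of NS1-expressing budding yeast. Cells grown overnight at 30C in -URA glucose medium, washed, resuspended and diluted 1:100 in 2% galactose assay medium, pH 6.0. Same strain lacking NS1 served as positive control.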
LASV entry inh: blocks Lassa virus binding to or entry into cells; Lassa virus pseudotype entry inhibition, cell reporter; control for the full effect not named in the record; Potency, µM (series often up to 37.9 µM), inactives show at the top dose activity change, negative = inhibition, usual class: inhibitors; 1.2% of 300,000 active; AID 540256; active means well fitted inhibition curve with a large enough effect; inconclusive means small, poorly fitted or top-dose-only effect, or effect the other way; inactive means flat fitted curve, though single readings scatter; tested in HEK293 cells; further: on the % scale 0 is the no-effect control and ±100 the full control effect; nearly all actives have a fitted effect of over 50% in size; luciferase read-out
Cruzain inh Det: blocks cruzain activity in presence of Triton detergent. P25779. purified cruzain, Z-FR-AMC fluorescence, 0.01% Triton. Potency, µM, for the others: max response, negative = inhibition, actives largely listed as inhibitors. 0.43% of 200,000 active. AID 1478; active means well fitted curve in the direction sought with a large enough effect; inconclusive means small, poorly fitted or top-dose-only effect, or another doubt; inactive means no such curve, though single readings can be large; an effect the other way counts as inactive or inconclusive;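 further: plate controls were neutral wells for no effect and buffer without enzyme for full effect; nearly all actives have a fitted effect of over 40% in size; top concentration of the series not given in the record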
Target sequence (P25779 123-467 limits assumed): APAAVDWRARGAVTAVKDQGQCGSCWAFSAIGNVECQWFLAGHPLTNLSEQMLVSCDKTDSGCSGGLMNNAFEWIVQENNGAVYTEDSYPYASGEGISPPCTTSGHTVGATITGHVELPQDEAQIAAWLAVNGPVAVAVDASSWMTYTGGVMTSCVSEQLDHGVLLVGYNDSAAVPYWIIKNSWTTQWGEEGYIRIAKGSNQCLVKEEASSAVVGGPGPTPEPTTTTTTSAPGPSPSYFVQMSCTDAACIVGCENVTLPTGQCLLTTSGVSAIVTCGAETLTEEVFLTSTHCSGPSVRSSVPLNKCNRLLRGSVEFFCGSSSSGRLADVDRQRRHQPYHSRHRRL
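15 min RT preincubation of 1.5 nM cruzain with compound, then 2 uM Z-FR-AMC added; kinetic AMC fluorescence, 60 s delta. Triton X-100 0.01%, pH 5.5.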
StopGo reporter: FMDV 2A StopGo reporter, luciferase signal; human cells with a luciferase reporter of 2A StopGo recoding; control for the full effect not named in the record; Potency, µM (highest dose often 57.9 µM), for inactives: at the highest dose signal change, negative = less light; 1.2% of 410,000 active; AID 1159524; active = well fitted falling curve with a large enough effect; inconclusive = small, poorly fitted or top-dose-only effect; inactive = no such curve, though single readings can be large or run the other way; tested in HEK293T cells; further: on the % scale 0 is the no-effect control and ±100 the full control effect; nearly all actives have a fitted effect of over 45% in size; luciferase light after 4 h
MARV entry inh: blocks Marburg virus binding to or entry into cells. AID 540276. Potency, µM (series often up to 37.8 µM), for inactives: at the highest dose activity change, negative = inhibition, hits mostly inhibitors. 1.8% of 300,000 active. Marburg virus pseudotyped entry inhibition, cell reporter; control for the full effect not named in the record; about a third of the inactives were read at about 46 µM; active = well fitted inhibition curve with a large enough effect; inconclusive = small, poorly fitted or top-dose-only effect, or effect the other way; inactive = flat fitted curve, though single readings scatter; tested in HEK293 cells; about a fifth of its hits are not listed in these tables; further: on the % scale 0 is the no-effect control and ±100 the full control effect; luciferase read-out
RE007 growth inh: less growth of the S. pombe RE007 Vpr strain | S. pombe RE007 Vpr strain, BacTiter-Glo ATP luminescence, 24 h; control for the full effect not named in the record | Potency, µM (doses to about 92.2 µM), for inactives: at the top dose activity change, negative = less growth | 0.21% of 360,000 active; active = well fitted falling curve with a large enough effect; inconclusive = small, poorly fitted or top-dose-only effect; inactive = no such curve, though single readings can be large or run the other way;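 further: on the % scale 0 is the no-effect control and ±100 the full control effect; nearly all actives have a fitted effect of over 50% in size; the assay follows cell death caused by Vpr and the record does not say whether a fall means rescue or toxicity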
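Fission yeast RE007 carrying one integrated HIV-1 vpr copy, seeded at OD 0.01 in PMG+AL medium with 23 nL pinned compound. Grown 24 h at 30 degrees; viability read by BacTiter-Glo luminescence after 5 min.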
Cruzain inh noDet: inhibitors of Trypanosoma cruzi cruzain without detergent. P25779. purified cruzain, Z-FR-AMC fluorescence, no detergent. Potency, µM, without a hit: max response, negative = inhibition, usual class: inhibitors. 2.3% of 200,000 active; active means well fitted curve in the direction sought with a large enough effect; inconclusive means small, poorly fitted or top-dose-only effect, or another doubt; inactive means no such curve, though single readings can be large; an effect the other way counts as inactive or inconclusive;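 further: plate controls were enzyme without inhibitor for no effect and buffer without enzyme for full effect; nearly all actives have a fitted effect of over 40% in size; top concentration of the series not given in the record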
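Purified cruzain at 1.5 nM, pre-incubated 15 min with compound at room temperature in 100 mM sodium acetate pH 5.5, 5 mM DTT, 0.00005% Triton X-100. Reaction started with 2 uM Z-FR-AMC; AMC fluorescence increase over 60 s gives rate.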
Numbers without * were called inactive; ? = inconclusive; nt = not tested or not shown; [ ] = dose if it differs, or a comment. Unless noted, the call rests on the fitted dose curve; in most records, active means well fitted rising curve with a large enough effect; inconclusive means small, poorly fitted or top-dose-only effect; inactive means no such curve, though single readings can be large or run the other way. Potency means the concentration at half of the fitted maximal effect.

item	Compound	NS1 inh	MARV entry inh	Cruzain inh Det	LASV entry inh	Cruzain inh noDet	StopGo reporter	RE007 growth inh	SARS PLpro yeast
1	CC(=O)c1ccc(NC(=O)CN2c3cccc4cccc(c34)S2(=O)=O)cc1	nt	3%[46.1 µM]	nt	-8%[46.1 µM]	nt	7%	11%	-2%
2	COc1cccc(CC(=O)Nc2ccc(F)c(S(=O)(=O)N3CCOCC3)c2)c1	nt	2%[46.1 µM]	nt	-29%	nt	22%	-6%	nt
3	O=C(CN1CCCC1)Nc1cc(F)ccc1F	-2%	nt	nt	nt	nt	-22%	-13%	-2%
4	Cc1ccc(S(=O)(=O)N2CCCC(C(=O)NCCC(C)C)C2)cc1 (stereo not given)	5%	4%[46.1 µM]	nt	-19%	nt	-17%	23%	0%
5	CCOc1ccccc1Nc1nc(-c2sc(NC(=O)c3cccc(Cl)c3)nc2C)cs1	-1%	0%	-0.4%	nt	6.3µM*	4%	-8%	-2%
6	COc1ccccc1N1CCN(C(=O)C2CCN(S(=O)(=O)c3cccc4nonc34)CC2)CC1	nt	nt	0.6%	-13%[46.1 µM]	?	-25%	nt	nt
7	Cc1ccccc1OCC(=O)NCCN1CCCC1	3%	-8%[46.1 µM]	-2.1%	-16%	-5%	-5%	-1%	-5%
8	O=C(O)c1ccc(S(=O)(=O)N2CCCc3ccccc32)cc1	2%	nt	nt	nt	nt	-12%	11%	-1%
9	CCOc1cc(CNC(CC)CO)ccc1OCC(=O)Nc1cccc(C(F)(F)F)c1 (stereo not given)	-3%	nt	nt	nt	nt	-24%	-14%	-1%
10	CC1C(=O)Nc2ccccc2N1C(=O)c1c(F)cccc1F (stereo not given)	4%	nt	nt	nt	nt	-25%	-1%	-1%
11	Cc1ccc(N=C2NC(=O)/C(=C/C=C/c3ccco3)S2)cc1C	27%	-19%	-17%	?	-4%	-6%	-11%	-2%
12	Cc1ccc(S(=O)(=O)CCc2nnc(N)s2)cc1	-9%	?	9.3%	-5%	4%	25%	6%	?
13	Cc1nc(Nc2nc3ccccc3o2)nc(C)c1C	nt	?	nt	nt	nt	-11%	-20%	1%
14	N#Cc1ccc(S(=O)(=O)N2CCCN(c3ccc(C(F)(F)F)cn3)CC2)cc1	-7%	3%[46.1 µM]	nt	?	nt	-10%	-23%	1%
15	O=S(Cc1ccc(Cl)cc1)c1ncc(CO)n1Cc1ccccc1 (stereo not given)	-7%	?	nt	1%[46.1 µM]	nt	-2%	4%	0%

Brought forward from above: three entries, followed by the next part.
item	Compound	NS1 inh	MARV entry inh	Cruzain inh Det	LASV entry inh	Cruzain inh noDet	StopGo reporter	RE007 growth inh	SARS PLpro yeast
13	Cc1nc(Nc2nc3ccccc3o2)nc(C)c1C	nt	?	nt	nt	nt	-11%	-20%	1%
14	N#Cc1ccc(S(=O)(=O)N2CCCN(c3ccc(C(F)(F)F)cn3)CC2)cc1	-7%	3%[46.1 µM]	nt	?	nt	-10%	-23%	1%
15	O=S(Cc1ccc(Cl)cc1)c1ncc(CO)n1Cc1ccccc1 (stereo not given)	-7%	?	nt	1%[46.1 µM]	nt	-2%	4%	0%
16	CCC(C(=O)N1CCC(N2CCCCC2)CC1)n1nc(C)c2sc3ccccc3c2c1=O (stereo not given)	2%	nt	nt	nt	nt	-21%	1%	-1%
17	COc1ccc(S(=O)(=O)N2CCCCCC2)cc1C(=O)NCc1cccs1	nt	-2%	nt	-26%	nt	4%	-3%	-1%
18	O=C(CCN1C(=O)C2C3C=CC(C4CC34)C2C1=O)OCC(=O)c1ccccc1 (stereo not given)	-26%	4%	nt	14%	nt	-12%	-5%	-6%
19	Cc1ccc(S(=O)(=O)c2c(N)n(/N=C/c3ccco3)c3nc4ccccc4nc23)cc1C	?	7.1µM*	-22%	-25%	16µM*	7%	3%	2%
20	CC1=NCC(C)c2c1[nH]c1ccccc21 (stereo not given)	1%	?	-3.2%	6%	2%	-23%	11%	-4%
21	COc1ccc(C(=O)O/N=C(\N)c2cccc(C)c2)cc1OC	-73%	nt	nt	nt	nt	50%[activator]	4%	-10%
22	CC1CC(C)CN(S(=O)(=O)c2ccc(C(=O)N(c3ccccn3)C3CCCCC3)cc2)C1 (stereo not given)	nt	?	nt	?	nt	-19%	32%	0%
23	C/C(CCS(=O)(=O)c1ccccc1)=N/O	nt	-1%[46.1 µM]	nt	-8%[46.1 µM]	nt	8%	14%	6%
24	COc1ccc(C(=O)Nc2ccccc2C(=O)Nc2ccccn2)cc1	-4%	-27%[46.1 µM]	nt	?	nt	15%	?	-6%
25	CC(NC(=O)c1cccc(Br)c1)c1ccccc1 (stereo not given)	-1%	?	nt	-13%	nt	-15%	1%	0%
26	CCC(C)NS(=O)(=O)c1ccc(OCC(=O)Nc2ccc3c(c2)OCO3)cc1 (stereo not given)	4%	2%	-1.7%	-4%	-6%	nt	4%	-3%
27	COc1ccc(S(=O)(=O)N2CCC(C(=O)N3CCCCC3)CC2)cc1Cl	-5%	1%	0.2%	-18%	14%	nt	-5%	-1%
28	c1ccc(-c2ncc(-c3ccn[nH]3)s2)cc1	nt	?	nt	?	nt	-24%	-18%	-13%
29	COc1ccc(N2CCN(C(=O)c3cc4ccccc4o3)CC2)cc1	1%	22%[46.1 µM]	nt	10%[46.1 µM]	nt	-1%	-1%	1%
30	O=C(NCc1ccccc1Cl)c1ccc2ccccc2n1	-4%	?	nt	?	nt	72%[activator]	-8%	-5%

Next compounds.
item	Compound	NS1 inh	MARV entry inh	Cruzain inh Det	LASV entry inh	Cruzain inh noDet	StopGo reporter	RE007 growth inh	SARS PLpro yeast
31	COc1cc(OC)cc(C(=O)NC2CCN(CC(=O)Nc3cccc4ccccc34)CC2)c1	-10%	-19%	-2.2%	-1%	-1%	-25%	1%	11%
32	CC1CCCCN1CCCNC(=O)Cn1ncc2c3ccccc3n(C)c2c1=O (stereo not given)	nt	-13%[46.1 µM]	-3.1%	19%[46.1 µM]	-3%	-12%	nt	nt
33	CCC(/C=C1\Sc2ccc(OC)cc2N1CCO)=C\c1sc2ccc(OC)cc2[n+]1CCO	-1%	?	?	?	-26%	18µM*	?	-57%
34	CCN(CC)CCNC(=O)NC(=O)c1ccc(Cl)cc1	-4%	6%	-2.8%	?	-6%	-2%	-16%	10%
35	Cc1ccc(N2CCN(S(=O)(=O)c3ccc(F)cc3)CC2)c(C)c1	-38%	nt	-11%	nt	-17%	?	-14%	-30%
36	Cc1oc2c(c1C(=O)Nc1ccc(OC(F)(F)F)cc1)C1=NCCN1C=N2	nt	nt	0.6%	10%[46.1 µM]	0%	-2%	nt	nt
37	NC(=S)NN=C1c2cc(S(=O)(=O)N3CCOCC3)ccc2-c2ccc(S(=O)(=O)N3CCOCC3)cc21	24%	8%	-9.0%	-14%	25%	-24%	3%	4%
38	Cc1cccc(OCC(O)Cn2c(-n3nc(C)cc3C)nc3c2c(=O)[nH]c(=O)n3C)c1 (stereo not given)	-11%	-1%[46.1 µM]	3.4%	-14%	-2%	?	-16%	0%
39	COc1ccc(CNC(=O)C2CCC(CNc3c(N4CCCCC4)c(=O)c3=O)CC2)cc1 (stereo not given)	-2%	-3%[46.1 µM]	nt	7%[46.1 µM]	nt	-10%	1%	1%
40	CC1C=CCC2C(=O)N(c3cccc(C(=O)Nc4ccc(F)cc4)c3)C(=O)C12 (stereo not given)	-4%	-6%	nt	?	nt	-22%	?	-7%
41	COc1ccc(-c2ccc(NS(=O)(=O)c3ccccc3)cc2)nn1	nt	nt	-4.1%	18%[46.1 µM]	-7%	22%	nt	nt
42	Cc1cc(C(=O)COc2ccccc2C(N)=O)c(C)n1C1CC1	8%	nt	nt	nt	nt	16%	6%	-9%
43	CCOc1ccccc1N1CCN(C(=O)CNC(=O)c2ccccc2F)CC1	0%	2%[46.1 µM]	nt	-10%[46.1 µM]	nt	5%	23%	2%
44	COc1ccc(CCN2C(=O)NC(NC(=O)CCc3ccccc3)(C(F)(F)F)C2=O)cc1OC (stereo not given)	-13%	-14%	-0.2%	17%	0%	-19%	-17%	4%
45	O=C(Nc1cccc2nsnc12)c1ccc2c(c1)OCO2	-12%	11%	1.4%	11%	-16%	34%[activator]	?	-6%

Next structures.
item	Compound	NS1 inh	MARV entry inh	Cruzain inh Det	LASV entry inh	Cruzain inh noDet	StopGo reporter	RE007 growth inh	SARS PLpro yeast
46	Cc1cccc(OCC(=O)OCC(=O)N(CC(C)C)c2c(N)n(Cc3ccccc3)c(=O)[nH]c2=O)c1C	nt	22%	nt	-19%	nt	-8%	2%	-4%
47	Cc1cc(C(=O)Nn2c(-c3ccncc3)nc3ccccc3c2=O)ccc1[N+](=O)[O-]	nt	19%[46.1 µM]	nt	0%[46.1 µM]	nt	-1%	-4%	-1%
48	O=C(Nc1cccnc1)c1c(O)c2cccc3c2n(c1=O)CC3	-67%	4%	2.3%	21%	4%	-19%	34%	-6%
49	O=C(CSc1cccc[n+]1[O-])Nc1c(Br)cc([N+](=O)[O-])cc1Br	-2%	11%[46.1 µM]	nt	12%[46.1 µM]	nt	2%	1%	5%
50	CCN(CC)S(=O)(=O)c1ccc(NC(=O)C2CC(=O)N(c3ccc4c(c3)OCCO4)C2)cc1 (stereo not given)	nt	15%	nt	-21%	nt	-3%	-25%	nt
51	CCOC(=O)c1c(C)[nH]c(C)c1S(=O)(=O)N1CCN(c2cc(Cl)ccc2C)CC1	nt	nt	-11%	-26%[46.1 µM]	28%	13%	nt	nt
52	COc1ccc(CCNC(=O)CCCNC(=O)Cn2cnc3sc(C)c(C)c3c2=O)cc1OC	0%	-13%[46.1 µM]	nt	-9%[46.1 µM]	nt	2%	9%	1%
53	Cn1c[n+](C)cc1/C=N/O	1%	12%	4.0%	-1%	-13%	12%	-3%	4%
